Six1-Eya2 blk – inhibitors of human Six1/Eya2 interaction; Q15475+O00167; AlphaScreen GST-Six1/His-Eya2 binding, biochemical; stronger effect = lower value; control for the full effect not named in the record; activity change, % (concentration not given with the values); hit rate 0.56% among 360,000; AID 651725; in the data active = activity change below about -65%; inconclusive = about -30% to -65%; inactive = above about -30%; also: % is scaled to controls: 0 for no effect and ±100 for the full control effect
Target sequence (O00167 whole entry, looked up): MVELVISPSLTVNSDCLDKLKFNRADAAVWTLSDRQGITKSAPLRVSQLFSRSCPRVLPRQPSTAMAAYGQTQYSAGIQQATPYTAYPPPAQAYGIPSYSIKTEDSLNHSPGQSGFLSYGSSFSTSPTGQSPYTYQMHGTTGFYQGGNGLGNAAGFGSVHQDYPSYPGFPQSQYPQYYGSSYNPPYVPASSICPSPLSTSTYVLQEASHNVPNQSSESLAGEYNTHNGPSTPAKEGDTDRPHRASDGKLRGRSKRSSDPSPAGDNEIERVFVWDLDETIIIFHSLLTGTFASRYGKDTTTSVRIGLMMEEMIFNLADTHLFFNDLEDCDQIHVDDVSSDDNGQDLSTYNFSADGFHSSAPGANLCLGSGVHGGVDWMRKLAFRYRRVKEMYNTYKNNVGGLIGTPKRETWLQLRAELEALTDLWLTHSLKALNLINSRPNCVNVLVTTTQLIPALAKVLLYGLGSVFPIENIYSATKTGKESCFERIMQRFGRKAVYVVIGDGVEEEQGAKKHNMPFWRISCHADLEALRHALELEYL
Target sequence (Q15475 whole entry, looked up): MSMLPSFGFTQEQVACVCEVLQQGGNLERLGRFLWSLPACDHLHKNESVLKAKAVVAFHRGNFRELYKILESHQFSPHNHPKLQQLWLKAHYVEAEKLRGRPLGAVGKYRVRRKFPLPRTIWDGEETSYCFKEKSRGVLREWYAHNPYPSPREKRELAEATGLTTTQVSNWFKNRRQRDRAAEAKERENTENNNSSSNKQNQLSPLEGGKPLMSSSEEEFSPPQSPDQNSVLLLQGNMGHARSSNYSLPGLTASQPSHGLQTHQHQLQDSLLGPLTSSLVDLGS
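AlphaScreen with GST-Six1 and His-Eya2 (5X mix: 250 nM and 500 nM), glutathione donor and nickel acceptor beads; buffer 50 mM Tris pH 8.0, 300 mM NaCl, 1 mM TCEP; 1 h at 37 C in the dark.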
D2 potentiator – potentiates the human D2 dopamine receptor allosterically. DiscoveRx D2 beta-arrestin cells, luminescence, 90 min; 100% = 57 uM dopamine signal. P14416. potentiation, % (concentration not given with the values). AID 624464. hit rate 0.23% among 360,000; active = potentiation of 50% or more; inconclusive = 30% to 50%; inactive = 30% or less;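 also: compound concentration not given in the record; tested on top of an EC20 dose of dopamine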
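D2 cells co-treated with compound plus 50 nM dopamine (EC20) for 90 min at 37 deg C to detect potentiation. Beta-arrestin recruitment was read as enzyme-fragment luminescence after 1 h at ambient temperature. Full response was set by 57 uM dopamine.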
D2 agonist – agonists of human D2 dopamine receptor (beta-arrestin) | AID 624465 | hit rate 0.084% among 360,000 | activation, % (test concentration not listed) | P14416 | DiscoveRx PathHunter D2 beta-arrestin, luminescence, 90 min; 100% = 57 uM dopamine signal; in the data active = activation above about 40%; inconclusive = about 15% to 40%; inactive = below about 15%; also: compound concentration not given in the record; the text of the record calls up to 30% inactive
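Agonist mode: compounds alone added to overnight-plated D2 PathHunter cells for 90 min at 37 C, with 57 uM final dopamine (EC100) defining full response. Beta-arrestin recruitment detected by chemiluminescent reagent, read after 1 h at ambient temperature.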
gsp agonist – gsp mutant agonism; gsp mutant cells, cAMP HTRF, 30 min; control for the full effect not named in the record; Potency, µM (highest dose often 76.9 µM), inactives show at the top dose activation (cAMP increase), most hits filed as activators; hit rate 0.13% among 340,000; active = well fitted activation curve with a large enough effect; inconclusive = small, poorly fitted or top-dose-only effect, or another doubt; inactive = no such curve, though single readings can be large or run the other way; cell line not stated here;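 also: phosphodiesterase inhibitor Ro 20-1724 added with compounds to block cAMP breakdown; potency is read from the fitted curve at half-maximal effect; nearly all actives have a fitted effect of over 60% in size; about a fifth of the inactives were tested at one dose only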
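Cells in DMEM/10% FBS with G418 were pretreated with compounds in DMSO plus […] (300 uM stock) for 30 min at 37C. cAMP was measured by HTRF (cAMP-d2 plus anti-cAMP antibody-K) after 30 min at room temperature.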
CtBP-E1A blk – inhibitors of CtBP/E1A interaction | AlphaScreen GST-E1A/His-CtBP binding, 1536-well; stronger effect = lower value; control for the full effect not named in the record | activity change, % (concentration not given with the values) | hit rate 0.49% among 340,000 | AID 651724; in the data active means activity change below about -65%; inconclusive means about -30% to -65%; inactive means above about -30%; also: % is scaled to controls: 0 for no effect and ±100 for the full control effect
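In 5 uL wells, 23 nL compound meets equimolar GST-E1A and His-CtBP (5X stock 125 nM each) for 2 h, 37 °C. Beads (5X, 50 ug/mL) then 1 h, 37 °C, dark.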
gsp antagonist – antagonizes gsp, the McCune-Albright syndrome mutation; gsp-mutant cells, cAMP HTRF, 30 min; control for the full effect not named in the record; AID 624288; hit rate 0.4% among 340,000; Potency, µM (highest dose often 76.9 µM), for inactives: at the top dose activity change, negative = inhibition, actives largely listed as inhibitors; active = falling curve of any shape with a large fitted effect; inconclusive = falling curve, mostly with a smaller effect; inactive = flat or rising curve; cell line not stated here;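 also: intracellular cAMP measured with PDE inhibitor Ro 20-1724 present during compound exposure; potency is read from the fitted curve at half-maximal effect; % is scaled to controls: 0 for no effect and ±100 for the full control effect; nearly all actives have a fitted effect of over 65% in size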
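G418-selected cells were plated in DMEM/10% FBS for 16-24 h at 37C, then treated with compounds plus the PDE inhibitor […] (300 uM solution added) for 30 min at 37C. Intracellular cAMP was measured by HTRF after 30 min lysis at room temperature.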
Starred values were filed as active, the others as inactive; ? = inconclusive; . = not tested or not shown; [ ] = remark or other dose.

no.	molecule	Six1-Eya2 blk	D2 potentiator	D2 agonist	gsp agonist	CtBP-E1A blk	gsp antagonist
1	CC1(C)C(=O)Nc2ccccc2N1C(=O)COC(=O)c1ccc(NC(N)=O)cc1	-6	-4	-2.2	-9%[15.4 µM]	-5	5%
2	CN(C)S(=O)(=O)N1CCC(Oc2cccc(C(=O)NC3CCOC3)c2)CC1 (centres undefined)	0	-2	-4.6	-26%	-1	4%
3	O=C(CC1SCCNC1=O)Nc1cc(Cl)cc(Cl)c1 (centres undefined)	8	-6	-1.3	-24%	0	4%
4	COc1ccc(NC(=O)CN(C)C(=O)C2CSC3(C)CCC(=O)N23)cc1 (centres undefined)	4	6	-3.3	14%	.	9%
5	O=C1CC2(CON=C2c2ccc(F)cc2)C(=O)N1c1ccc(F)cc1 (centres undefined)	5	-1	-0.2	-7%	1	6%
6	CCOC(=O)c1cnc(SC)nc1Sc1ccccc1Cl	28	-8	-0.8	2%	38	-17%
7	Cc1cc(/C=C2\SC(=O)NC2=O)c(C)n1-c1ccc(N(C)C)cc1	12	-1	8.3	-13%[15.4 µM]	-15	-6%
8	O=C(Nc1ccc(N2CCOCC2)cc1N1CCOCC1)c1ccc([N+](=O)[O-])cc1Cl	2	-12	6.3	-1%[15.4 µM]	2	0%
9	CCOc1ccc(CCNC(=O)CSC(=S)N2CCCC2)cc1OCC	-1	1	3.1	-51%[inhibitor]	6	-3%
10	CCOC(=O)c1nn(-c2ccccc2C)c(=O)cc1OCC(=O)Nc1cccc(OC)c1	-3	-1	-2.1	-27%	0	-9%
11	O=C(O)c1ccccc1NCc1ccco1	-28	5	5.2	12%	.	1%
12	Nc1ccc(Cl)c(-c2nc3ncccc3o2)c1	-15	3	-2.0	44%	-13	3%
13	COc1ccc(OC)c(CNc2ccc(F)c(Cl)c2)c1	-12	-9	-1.4	-2%	-2	?
14	Oc1ccc(-c2nnc(-c3ccc(O)cc3)nn2)cc1	-9	8	0.9	-11%	0	8%
15	Cc1nc(NC(=O)c2ccco2)sc1C(=O)Nc1ccc(Br)cc1	-1	-3	-1.3	12%	7	-7%
16	CC(C)Cn1c(SCC#N)nc2ccccc2c1=O	-3	-5	-5.4	-41%[inhibitor]	3	13%
17	COc1cccc(N(C(=O)CNC(=O)c2ccco2)C(C(=O)NC2CCCCC2)c2ccncc2)c1 (centres undefined)	-1	3	-4.8	4%	5	0%
18	COC(=O)C(C)n1nc(C)n(-c2ccc(C)cc2)c1=O (centres undefined)	7	-11	-3.3	-2%	4	5%
19	S=C(Nc1cccc(Cl)c1)NC1CCCCC1	2	-9	-2.1	-28%	5	-15%
20	Cc1cc(C)cc(NC(=O)NCC2CCN(Cc3cc(C)ccc3C)CC2)c1	4	-14	-10	-23%	3	5%
21	CCCCNC(=O)c1cn(CC)c2ccc(S(=O)(=O)N3CCCC3)cc2c1=O	6	-4	11	4%	-18	-19%
22	Cc1cc(C(=O)CCl)c(C)n1CCc1ccccc1	-3	1	-1.6	6%[15.4 µM]	-5	-11%
23	CCOc1cccc(C(=O)Nc2ccc(N(CC)CC)cc2)c1	?	-7	-2.4	-3%	?	-16%
24	CCCNC(=O)c1c[nH]c2ccc(S(=O)(=O)N(C)c3ccc(OCC)cc3)cc2c1=O	6	-5	1.9	-39%	-1	?
25	Cc1cc(NC(=O)CSCC(=O)Nc2cc(C(F)(F)F)ccc2N2CCCCC2)no1	-1	-8	-4.5	-14%	9	8%
26	CCOC(=O)c1c(C)[nH]c(C(=O)COC(=O)C2CC(=O)N(Cc3ccccc3)C2)c1C (centres undefined)	-7	-3	-4.2	-3%	-2	-14%
27	Cc1ccc(S(=O)(=O)Nc2ccccc2F)cc1C(=O)NCCCN1CCCC1=O	12	-5	-2.3	19%	6	-11%
28	c1ccc(CCNc2cnccn2)cc1	1	-11	7.2	31%	-4	9%
29	COc1ccccc1C(OC(=O)c1cccs1)C(=O)NCC1CCCO1 (centres undefined)	-1	-17	-2.9	-27%	9	-6%
30	Cc1cccc(N(CC(=O)Nc2cccnc2)S(C)(=O)=O)c1	39	-9	-0.3	-14%	23	-7%

Ordered by value in gsp antagonist (ascending): some entries from above.
no.	molecule	Six1-Eya2 blk	D2 potentiator	D2 agonist	gsp agonist	CtBP-E1A blk	gsp antagonist
21	CCCCNC(=O)c1cn(CC)c2ccc(S(=O)(=O)N3CCCC3)cc2c1=O	6	-4	11	4%	-18	-19%
30	Cc1cccc(N(CC(=O)Nc2cccnc2)S(C)(=O)=O)c1	39	-9	-0.3	-14%	23	-7%
16	CC(C)Cn1c(SCC#N)nc2ccccc2c1=O	-3	-5	-5.4	-41%[inhibitor]	3	13%

Next section:
no.	molecule	Six1-Eya2 blk	D2 potentiator	D2 agonist	gsp agonist	CtBP-E1A blk	gsp antagonist
31	CCOC(=O)c1ccc(CS(=O)c2ccc(Cl)cc2)o1 (centres undefined)	0	-1	-2.5	15%	3	-11%
32	O=C1C2CC=CCC2C(=O)N1c1ccc(NCCc2ccccc2F)c([N+](=O)[O-])c1 (centres undefined)	0	-7	1.2	-15%	5	-4%
33	CCN(CC)c1ncnnc1-c1ccccc1	3	-16	-2.2	-25%	1	3%
34	COc1ccc(Nc2nc3nonc3nc2N2CCCCC2)cc1	-21	-6	0.8	14%	-5	-22%
35	CCC(C)(C)NC(=O)C(c1ccccc1F)N(C(=O)c1ccn[nH]1)c1ccccc1 (centres undefined)	2	-7	-2.7	-58%[inhibitor]	-1	-1%
36	O=C(O)CN(CC(=O)O)CC(=O)O	-73*	-10	2.7	.	-96*	-9%
37	CCOc1ccc(CN2CCSCC2)cc1	1	-15	-4.6	-5%[15.4 µM]	-4	10%
38	COc1cc(Br)c(-c2sc(Nc3ccccc3)n[n+]2-c2ccccc2)cc1OC	0	-13	-1.7	9%	6	-4%
39	O=C(c1ccc(C(F)(F)F)cc1)n1ccc(-c2cccs2)n1	6	-3	2.4	-4%[15.4 µM]	6	6%
40	Cc1nc(C)c(C(=O)NCCC(c2ccccc2)c2ccccc2)o1	5	1	2.0	9%[15.4 µM]	-2	-9%
41	Cc1cccc(C)c1Nc1c(-c2ccccc2O)nc2ncccn12	17	1	1.6	-16%[15.4 µM]	2	-13%
42	Cc1cccc(C(=O)NCC(=O)N(C)CC(=O)Nc2ccc(N3CCOCC3)cc2)c1	0	15	-6.3	9%[15.4 µM]	-3	8%
43	COc1ccccc1C(=O)OCC(=O)Nc1cccc(S(=O)(=O)N2CCCC2)c1	-2	-2	-4.1	-40%[inhibitor]	-4	-14%
44	CSc1cccc(CN2CCC(Oc3ccc(C(=O)N4CCCCC4)cc3)CC2)c1	-21	-35	-6.5	-23%	?	6%
45	O=C1NC(Cc2ccc(O)cc2)c2nc3cc(Cl)ccc3c(=O)n2-c2ncccc21 (centres undefined)	-2	-2	-6.8	2%	1	.
46	CCCc1cc(=O)[nH]c(SCC(=O)Nc2nc(-c3ccccc3)cs2)n1	0	-2	-12	9%[15.4 µM]	.	-30%
47	Nc1c(-c2ccccc2)c(CSc2nc3ccccc3[nH]2)nn1-c1ccc(C(=O)O)cc1	-6	-4	-0.5	1%	.	-7%
48	CC(C)CC(=O)Nc1nnc(S(=O)(=O)N2CCCCCC2)s1	3	-1	-0.9	22%	4	12%
49	COC(=O)c1cnc(N2CCOCC2)nc1C(F)(F)F	6	4	0.2	10%[15.4 µM]	9	4%
50	CCOC(=O)c1c(CN2CCOCC2)oc2ccc(OC)cc12	-1	-11	-3.2	-28%	5	?
51	CCCCN(CCO)CCCC	-4	-3	-0.7	.	1	5%
52	C=COCCn1c(-c2nonc2N)nc2ccccc21	16	-5	0.0	7%	4	-4%
53	O=C(COC(=O)COc1ccc(Cl)cc1Br)NCCC1=CCCCC1	8	1	3.1	-6%	9	1%
54	O=C(NCc1ccco1)c1ccc(COc2ccc(Cl)cc2)cc1	-22	-5	-1.5	-2%[15.4 µM]	1	-5%
55	COc1ccc2[nH]c(=O)c(CN(C(=O)c3ccco3)C3CCCCC3)cc2c1	-3	-7	-0.1	-18%	1	-10%
56	C=CCN1C(=O)/C(=C2/Sc3ccc(OC)cc3N2C)SC1=Nc1cccc(O)c1	-10	1	-6.3	-17%[15.4 µM]	-6	25%
57	Cc1ccc(C(=O)N2CCCC(Nc3ccc(C)c(C)c3)C2)c(=O)[nH]1 (centres undefined)	5	-1	-2.7	-56%[inhibitor]	4	-2%
58	Cc1cc(C)n2nc(-c3ccsc3-n3c(C)ccc3C)cc2n1	-7	10	-3.9	-2%	-11	-7%
59	Cc1ccc2nc(N(CCN(C)C)C(=O)C3CCN(S(=O)(=O)c4cccs4)CC3)sc2c1	26	-35	2.8	-27%	22	.
60	CS(=O)(=O)Nc1cccc(C2=NN(C(=O)c3ccccc3)C(c3cccs3)C2)c1 (centres undefined)	6	22	5.1	0%	2	?
61	CCCCn1c(-c2ccc(Cl)c(Cl)c2)nc2cc3[nH]c(=O)c(C(C)C)nc3cc21	31	-3	0.6	?	-1	-2%
62	O=C(O)CSc1cn(Cc2ccccc2)c2ccccc12	-28	-5	-4.0	11%[15.4 µM]	-19	-10%
63	COc1cc(OC)cc(C(=O)Nc2nc(CC(=O)NCc3ccc(F)cc3)cs2)c1	-6	-7	6.0	0%	-2	-11%
64	C/C=C/C=C\C(=O)Nc1cccc(C2=NOC3(C2)C[C@H](C(N)=O)N(C(=O)/C=C/C)C3)c1 (some centres undefined)	-23	-33	0.3	.	-4	3%
65	OCCOCCNc1ncnc2c1cnn2-c1ccccc1	-2	-8	-3.9	10%	-1	11%
66	Cc1nc(N2CCC(C)CC2)c2c(C)c(C(=O)Nc3cc(F)ccc3C)sc2n1	3	0	2.3	0%[15.4 µM]	4	-28%
67	Cc1ccc(-n2nnnc2SCc2ccccn2)cc1C	3	5	-1.5	2%	6	-7%
68	O=C(c1cccs1)N1CCN(CCCc2ccccc2)CC1	-1	-10	2.3	18%	-4	-6%
69	COc1ccc(C2N3CC4(C)CN2CC(C)(C3)C4O)cc1OC (centres undefined)	3	-5	-2.3	0%	-3	-16%
70	Cc1ccc(Nc2ccc(S(=O)(=O)N3CCOCC3)cc2[N+](=O)[O-])cc1C	?	-27	-3.7	2%	2	6%
